# Assay outcomes: PubChem, several laboratories
# WNV protease inh: inhibitors of West Nile virus NS2B-NS3 protease; P06935; WNV NS2B-NS3 protease, fluorogenic substrate Ex360/Em465; hits give low values; z-score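 (tested at a level between 10 and 100 µM)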; actives 0.18% (n = 65,000);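 active = z-score at -3 or under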;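 also: score is relative to mean and spread of the compound wells of a plate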
# Target sequence (P06935 1371-1501 limits assumed): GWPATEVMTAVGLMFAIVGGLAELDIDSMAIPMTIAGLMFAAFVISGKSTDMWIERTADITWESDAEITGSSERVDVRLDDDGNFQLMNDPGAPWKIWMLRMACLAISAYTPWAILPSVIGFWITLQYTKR
# Target sequence (P06935 1502-1679 limits assumed): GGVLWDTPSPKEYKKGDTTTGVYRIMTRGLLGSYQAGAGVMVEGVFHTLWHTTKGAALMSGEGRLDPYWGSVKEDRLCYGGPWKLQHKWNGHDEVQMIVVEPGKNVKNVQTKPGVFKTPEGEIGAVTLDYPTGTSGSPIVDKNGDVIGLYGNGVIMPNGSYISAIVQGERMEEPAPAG
# MT1-MMP promoter: MT1-MMP gene expression reporter suppression – cell-based, luciferase reporter, luminescence (AID 618) | MT1-MMP promoter luciferase reporter cells, luminescence | calls from a first round at 10 µM; hits with a dose series show EC50 in µM | actives 0.62% (n = 87,000);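 active = over half of the reporter light lost at 10 µM or EC50 under 50 µM; inactive = the rest and hits that failed the dose series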;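 also: actives suppress MT1-MMP promoter-driven transcription so potencies describe inhibitors; HT1080 fibrosarcoma cells; overnight exposure; toxic or luciferase-blocking compounds were not removed from the actives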
# Hsc70 ATP site: small molecules displacing fluorescent ligand from Hsc70 – biochemical, fluorescence polarization, primary screen (AID 568); 83,000 tested, under 10 active; Hsc70 fluorescence polarization, probe displacement; higher % means a stronger effect; strong numbers were not always called active; one-dose displacement, % at 20 µM; IC50 in µM for titrated hits;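 active = displacement above 50% without optical interference and an IC50 on retest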;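 also: ATPase domain with a fluorescein-tagged ATP probe; 0% = vehicle and 100% = excess ADP; read after one hour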
# Starred values were filed as active, the others as inactive; i = inactive; / = not tested or not shown. This is a random part of the collection (roughly 0.77% active in at least one column).
canonical_smiles	Hsc70 ATP site	MT1-MMP promoter	WNV protease inh
CCOC(=O)Cc1csc(NC(=O)CSc2nnc(-n3nc(C)cc3C)c3ccccc23)n1	-0.3%	i	1.7
Brc1ccc(Oc2nnnn2-c2ccccc2)cc1	6.1%	i	-0.06
CC1(C)OC(=O)C(=CNC(CCC(N)=O)C(=O)O)C(=O)O1 (stereo unspecified)	-1.1%	i	1.8
COc1ccccc1-c1noc(-c2ccccc2C(=O)N2CCOCC2)n1	3.7%	i	0.62
Cc1cccn2cc(CNc3ccccc3)nc12	10%	i	-0.18
Cc1nn(CC(=O)Nc2ccc(C(=O)N3CCCC3)cc2)c(=O)c2ccccc12	1.4%	i	-0.13
COc1nc(NCC(C)C)nc(Oc2ccc(=O)n(-c3ccccc3)n2)n1	1.4%	i	1.3
Cn1c(C(C#N)C2=C(Cl)C(=O)N(c3ccccc3)C2=O)nc2ccccc21 (stereo unspecified)	22%	i	-0.83
COc1ccc(NC(=O)c2cnc3ccccn3c2=O)c(OC)c1	5.1%	i	-1.9
O=C(NC(=S)Nc1ccccc1N1CCCC1)c1ccc(-c2cccc([N+](=O)[O-])c2)o1	-1.5%	i	/
OC(COc1ccc2ccccc2c1Br)Cn1ccnc1 (stereo unspecified)	-1.3%	i	2.1
C=CCNc1oc(Cc2cccc3ccccc23)nc1C#N	3.5%	i	-0.32
S=c1nc(-c2ccccc2Br)[nH][nH]1	4.4%	i	/
Cc1ccc(S(=O)(=O)N(CC(O)CN2CCCC2)c2ccccc2)cc1 (stereo unspecified)	-0.4%	i	0.33
O=C(Cn1cnc2ccccc2c1=O)N1CCN(Cc2ccc3c(c2)OCO3)CC1	1.3%	i	/
Cc1cc(C)n2c(SCc3ccc(Cl)cc3Cl)nnc2n1	0.5%	i	/
CSc1cccc(NC(=O)CSc2ccc(C)cc2)c1	0.3%	i	/
COc1ccc2[nH]c(=O)c(CN(Cc3cccnc3)C(=O)Nc3ccccc3)cc2c1	-4.9%	i	-0.37
CC(C)SCc1nc2ccccc2[nH]1	-1.3%	i	/
CC(=O)Nc1ccc2c(c1)nc(CN1CCCC1)n2C	-0.4%	i	/

# In the list so far, these contain a cyano group:
canonical_smiles	Hsc70 ATP site	MT1-MMP promoter	WNV protease inh
Cn1c(C(C#N)C2=C(Cl)C(=O)N(c3ccccc3)C2=O)nc2ccccc21 (stereo unspecified)	22%	i	-0.83
C=CCNc1oc(Cc2cccc3ccccc23)nc1C#N	3.5%	i	-0.32

# (cont.)
canonical_smiles	Hsc70 ATP site	MT1-MMP promoter	WNV protease inh
CN(C)C(=O)Nc1ccc(F)cc1F	3.3%	i	-0.81
CCCCn1c(N(CCOC(C)=O)C(C)=O)nc2ccccc21	-1.9%	i	-1.1
Cc1cc2nnc(SC3CCOC3=O)n2c2ccccc12 (stereo unspecified)	2.2%	i	-0.74
COC(=O)c1ccc(N2C(=O)CC(N3CCN(C(=O)c4ccco4)CC3)C2=O)cc1 (stereo unspecified)	2.0%	i	1.3
Nc1nc(-c2cccnc2)nn1C(=O)c1ccco1	1.2%	i	-0.49
O=C(Nc1nnc(-c2cccs2)o1)c1cccc(F)c1	2.3%	i	0.44
Cc1nc2ccc(S(=O)(=O)NCC(=O)N3CCCC(C)C3)cc2s1 (stereo unspecified)	8.8%	i	-0.56
Cc1ccc2c(N)c(C(=O)N(c3ccccc3)c3ccccc3)sc2n1	4.1%	i	/
Cc1sc(NC(=O)CSc2nnc(-c3ccc(F)cc3)o2)c(C#N)c1C	-17%	i	-0.6
CCN(CC)c1ccc(NC(=O)c2ccc(Br)o2)cc1	-7.6%	i	-1.4
CCOC(=O)c1nn(-c2ccc(OCC)cc2)c2nc(CC(C)C)c(C#N)c(=O)n12	2.7%	i	/
C[C@H](NC(=O)OC(C)(C)C)c1nnc(SCC(=O)c2ccc(Cl)cc2)o1	-0.4%	i	0.28
Cn1c(Cn2c(=O)sc3ccccc32)nnc1SCc1cccnc1	-5.8%	i	0.74
Brc1cccc(-c2nnc(SCc3ccon3)n2-c2ccccc2)c1	3.1%	i	-1.3
CC(C)CNc1nc(Oc2ccc(=O)[nH]n2)nc(N(C)C)n1	2.2%	i	/
C/C=C/c1ccc(OCCN2C(=O)NC(C)(C)C2=O)c(OC)c1	-0.1%	i	0.99
O=C(Cn1cnnn1)OCC(=O)c1ccc(Cl)s1	-14%	i	-0.62
O=C(NCc1ccccc1)N(Cc1cc2cc3c(cc2[nH]c1=O)OCCO3)CC1CCCO1 (stereo unspecified)	4.4%	i	-1.4
COc1ccc(OC)c(NC(=O)CCn2cccc2)c1	-3.3%	i	-0.27
O=C(CSc1nnnn1C1CCCCC1)NCc1ccccc1	-4.3%	i	/
CCc1noc(C)c1C(=O)Nc1sc(C(=O)N(C)C)c(C)c1C(=O)OC	3.3%	i	-0.3
CCOc1ccc(NC(=O)Nc2ccc3c(c2)N(C)C(=O)CS3)cc1	0.5%	i	-0.65
CC(=O)c1cnc(Nc2nc(C)c3cc(C)ccc3n2)nc1C	-0.4%	i	0.29
CCCCN1C(=O)C(O)(CC(=O)c2c(C)n[nH]c2C)c2cc(Br)ccc21 (stereo unspecified)	-6.7%	i	-0.33
Cc1nnc(NC(=O)C2CCN(c3nnnn3-c3ccccc3)CC2)s1	-7.7%	i	0.35
COc1ccc(C(C(=O)NCc2ccccc2)N(Cc2ccc3c(c2)OCO3)C(=O)c2cnccn2)cc1 (stereo unspecified)	-3.4%	i	/
CCOC(=O)c1ccc(NC(=O)CSc2nnc(C3CC3)n2CC)cc1	-6.3%	i	/
COc1ccc(CNC(=O)c2cnccn2)cc1	1.4%	i	/
CCN(Cc1cc2cc(C)ccc2[nH]c1=O)C(=O)c1cccc(OC)c1	4.9%	i	-0.32
CC(C)(C)NC(=O)CSc1nncn1NCc1cccc2ccccc12	-1.8%	i	/

# Arranged by SMILES length (low to high): 3 of the compounds above.
canonical_smiles	Hsc70 ATP site	MT1-MMP promoter	WNV protease inh
Cc1cc2nnc(SC3CCOC3=O)n2c2ccccc12 (stereo unspecified)	2.2%	i	-0.74
C/C=C/c1ccc(OCCN2C(=O)NC(C)(C)C2=O)c(OC)c1	-0.1%	i	0.99
COc1ccc2[nH]c(=O)c(CN(Cc3cccnc3)C(=O)Nc3ccccc3)cc2c1	-4.9%	i	-0.37

# The results go on.
canonical_smiles	Hsc70 ATP site	MT1-MMP promoter	WNV protease inh
COc1cc2c(C(=O)NCc3ccccn3)cn(C)c(=O)c2cc1OC	-4.8%	i	2.1
CC(=O)Nc1cc(C(F)(F)F)ccc1OCCOc1ccccc1	-4.5%	i	/
CCN(c1ccccc1)S(=O)(=O)c1ccc(NCC2COc3ccccc3O2)nc1 (stereo unspecified)	-12%	i	0.44
Cc1ccc(-c2cc(C(=O)NCc3ccc4c(c3)OCO4)[nH]n2)c(O)c1C	-2.1%	i	-0.38
Cc1cccc(CS(=O)(=O)Cc2ccc(C(=O)NCc3cccnc3)o2)c1	-6.0%	i	-0.53
CCc1ccc2[nH]c(=O)c(CN(CCCN3CCOCC3)C(=O)Nc3ccc(Cl)cc3)cc2c1	-2.9%	i	-1.1
Cc1ccc2[nH]c(=O)c(CN(CCCN3CCOCC3)C(=O)NC3CCCCC3)cc2c1	1.2%	i	-1.6
COc1ccc(NC(=O)N(CCc2ccccc2)Cc2cc3c(C)cc(C)cc3[nH]c2=O)cc1	2.2%	i	/
CCCc1c(C)c2cc(C)ccc2[nH]c1=O	5.2%	i	0.04
CC(C)CCNC(=O)NC(=O)COC(=O)C1=COCCO1	-1.6%	i	2
O=C(NC1CCS(=O)(=O)C1)c1cccc(S(=O)(=O)N2CCCCC2)c1 (stereo unspecified)	-1.3%	i	-1.4
Cc1ccc(C)c(-n2nnnc2SCC(=O)Nc2cccc(-c3nnc4n3CCCCC4)c2)c1	-0.7%	i	0.55
CC1(C)Cc2c(cnn2-c2ccccc2)-c2c1c1ccccc1n2CC(O)CBr (stereo unspecified)	1.6%	i	/
CC1CC(=O)C=C(O)C1C(=O)OC(C)(C)C (stereo unspecified)	-0.9%	i	-0.8
CCOC(=O)N1CCC(NC(=O)c2cc3c(-c4ccc(OC)c(OC)c4)nn(C)c3s2)CC1	-1.2%	i	-0.38
NNC(=O)c1ccncc1	0.1%	i	-0.21
c1ccc(CCc2nc(-c3ccccn3)no2)cc1	-1.3%	i	-0.23
O=C(Cn1c(-c2ccccc2)noc1=O)NCc1ccccc1	3.4%	i	1.1
COc1nccnc1NS(=O)(=O)c1ccc(NS(=O)(=O)c2ccc(NC(C)=O)cc2)cc1	-5.1%	i	/
O=C(NC12CC3CC(CC(C3)C1)C2)N1CCC(O)(c2ccc3c(c2)OCO3)CC1	-1.1%	i	-0.57
COC(=O)c1ccccc1S(=O)(=O)N1CCC(c2nc3ccccc3o2)CC1	-5.1%	i	-0.84
Cc1ccc(S(=O)(=O)Cn2nnnc2CN2CCN(Cc3ccc4c(c3)OCO4)CC2)cc1	5.5%	i	0.94
COC(=O)C1(C)NC(c2ccc(O)cc2)C2C(=O)N(c3ccc4c(c3)OCCO4)C(=O)C21 (stereo unspecified)	3.2%	i	-0.58
COC(=O)C1C(=O)CC(C)(O)C(C(=O)OC)C1c1ccccc1F (stereo unspecified)	-5.9%	i	-0.5
CCN1CCN(C(=O)C2(NC(=O)Nc3cccc(F)c3)CCCCC2)CC1	2.3%	i	/
C=CCNC(=S)NNC(=O)c1ccc(OCCC)cc1	-0.6%	i	/
CC1CCCN(CCCNC(=O)C2CC(=O)N(c3ccc(F)c(Cl)c3)C2)C1 (stereo unspecified)	2.0%	i	-1
CC(C)c1nc2oc3c(NCc4cccnc4)ncnc3c2c2c1CCC2	2.1%	i	1.5
COc1cccc(CNC(=O)Cc2c(C(=O)O)[nH]c3ccccc23)c1	2.5%	i	/
CC(=O)Nc1cc(NC(=O)C2C3C=CC(C3)C2C(=O)O)ccc1Cl (stereo unspecified)	-5.0%	i	0.05
O=C(NCc1ccccn1)c1cc2ccccc2oc1=O	9.1%	i	-0.49
Clc1ccc(Cc2noc(Cc3ccccc3)n2)cc1Cl	-5.1%	i	-1.5
Cc1onc(-c2ccccc2Cl)c1C(=O)Nc1cccc2nsnc12	-4.6%	i	0.86
COc1ccc(N2CCn3c2nc2c3c(=O)n(CCCc3ccccc3)c(=O)n2C)c(OC)c1	1.3%	i	-1.1
O=C(COC(=O)CCc1c[nH]c2ccccc12)NC1CCS(=O)(=O)C1 (stereo unspecified)	-4.6%	i	0.35
CCN(CC)C(=O)c1cncc(C(=O)N(CC)CC)c1-c1ccccc1	-1.2%	i	2
Cc1ccc(Cl)cc1NC(=O)Cn1cccc1	0.9%	i	-0.3
CC(C)(C)C(=O)Nc1cc(C(F)(F)F)ccc1N1CCOCC1	-1.7%	i	/
CCOC(=O)N1CCC(NC(=O)CCC(=O)N2CC(C)Oc3ccc(C)cc32)CC1 (stereo unspecified)	-6.6%	i	-1.5
CCCOc1ccc(Cc2nn3c(=O)/c(=C/c4ccco4)sc3nc2=O)cc1	3.2%	i	1.1
CCS(=O)(=O)n1nc(-c2ccc(Cl)cc2)nc1SCc1ccccc1	5.1%	i	/
COCCNc1nc2ccccc2nc1NS(=O)(=O)c1ccc(C)cc1C	6.3%	i	/
CCOC(=O)N1CCN(C(=O)CN(Cc2ccc(Cl)cc2)S(C)(=O)=O)CC1	15%	i	-0.59
CCn1c(SCC(=O)Nc2ccccc2C(=O)OC)nnc1-c1cccc(C)c1	-0.3%	i	/
CCOC(=O)N1CCN(C(=O)C2CC(c3ccc(F)cc3)=NO2)CC1 (stereo unspecified)	-2.9%	i	0.49
COc1ccc(CCNC(=O)C2CCN(S(=O)(=O)c3ccc(Cl)cc3)CC2)cc1OC	0.4%	i	/
Cc1ccc(S(=O)(=O)Cn2nnnc2C(c2ccccc2)N2CCN(c3ccccc3)CC2)cc1 (stereo unspecified)	3.4%	i	/
CC(=O)c1cccc(NC(=O)NC(C)C2CCCO2)c1 (stereo unspecified)	-4.3%	i	-1.4
O=C(NC1CCCC1)C1CCCN1C(=O)Nc1ccccc1Cl (stereo unspecified)	1.4%	i	0.77
CC(C)c1nnc(NC(=O)CCS(=O)(=O)c2nc(-c3cccs3)cc(C(F)(F)F)n2)s1	-0.9%	i	-1.2

# More records
canonical_smiles	Hsc70 ATP site	MT1-MMP promoter	WNV protease inh
CC(=O)N1CCCc2cc(S(=O)(=O)Nc3ccc4c(c3)OCO4)ccc21	-1.5%	i	-2.4
O=C(NCc1ccco1)Nc1ccc(Br)cc1	-0.3%	i	-0.61
COc1ccc(NC(=O)c2cccc(F)c2)cc1Cl	4.5%	i	/
Cc1cccc2cc3c(nc12)SC(=NCC1CCCO1)N(Cc1ccco1)C3 (stereo unspecified)	-2.6%	i	-1.1
Cc1cc(NCc2ccc(F)cc2Cl)n2nnnc2n1	-1.6%	i	-0.95
CCCn1c(=O)c2ccccc2n2c(SCCOc3ccccc3)nnc12	6.0%	i	-0.29
O=C(NCc1ccc2c(c1)OCO2)c1cccc(Cl)c1	-5.8%	i	0.52
